VACV mCherry inh: vaccinia inhibition (mCherry reporter) | Vaccinia virus mCherry reporter infection, fluorescence; about a quarter of the inactives have no number | Potency, µM (titrated, usually from 36.5 µM), without a hit: top-dose activity change, negative = inhibition, most hits filed as inhibitors | hit rate 0.63% among 310,000; active = well fitted inhibition curve with a large enough effect; inconclusive = small, poorly fitted or top-dose-only effect; inactive = no such curve, though single readings can be large or run the other way; tested in A549 cells; note: nearly all actives have a fitted effect of over 35% in size; inactives centre near -10
VACV Venus inh: vaccinia inhibition (Venus reporter); AID 720580; Vaccinia virus Venus reporter expression, fluorescence; Potency, µM (series often up to 36.5 µM), inactives show top-dose activity change, negative = inhibition, most hits filed as inhibitors; hit rate 0.46% among 330,000; active means well fitted inhibition curve with a large enough effect; inconclusive means small, poorly fitted or top-dose-only effect; inactive means no such curve, though single readings can be large or run the other way; tested in A549 cells; note: nearly all actives have a fitted effect of over 30% in size; inactives centre near -10
* hit, by the source's call; i = inactive; ? = inconclusive; . = no result given; & = joins results of further samples; ! = a repeat was not active. % is set by controls: 0 for no effect and ±100 for the full control effect; potency is the fitted concentration of half-maximal effect.

Value order – VACV mCherry inh | VACV Venus inh
> O=C(Nc1ccc(Cl)c(Cl)c1)c1cccc(S(=O)(=O)NCc2cccnc2)c1
→ 28.2µM* | ?
> Cc1[nH]c2c(C)cccc2c1CC(=O)O
→ -2.2% | -8.1%
> COc1ccc(CN(CC(=O)NCC2CCCO2)C(=O)CNS(=O)(=O)c2ccc(C)cc2)cc1 (centres undefined)
→ . | -10.6%
> CCOc1ccccc1-c1nc(Cn2c(=O)cc(C)c3c(C)nn(-c4ccccc4)c32)c(C)o1
→ -0.3% | -8.4%
> CC(C)OS(C)(=O)=O
→ -12.7% | -15.0%
> O=C(C[C@H]1C/C=C\CC[C@@H](Cc2ccc(F)cc2)C(=O)OC[C@H]2CCCN2C1=O)N[C@@H](CO)Cc1ccccc1
→ i | -14.0%
> CCOc1ccccc1N(CC(=O)OC)S(C)(=O)=O
→ i | -7.9%
> O=C(NCCc1ccccc1C(F)(F)F)C1CCC(=O)N(CCCN2CCCC2=O)C1 (centres undefined)
→ i | -4.8%
> O=C(NCCCO)c1cc2c([nH]c3ccccc32)c(-c2ccc(F)cc2)n1
→ ? | -19.1%
> O=C(Cc1ccc(OCc2ccccn2)cc1)NO
→ 13.9% | -11.1%
> CCc1ccc(C(=O)NC2CCCCC2)s1
→ -20.8% | -25.1%
> CCN1CCN(S(=O)(=O)c2ccc3c(c2)NC(=O)CS3)CC1
→ i | -17.8%
> COc1ccc(C(CCNCc2ccc(N(C)C)cc2)c2ccccc2)cc1 (centres undefined)
→ ? | -20.5%
> O=C1NC(c2ccccc2)=CC(c2ccccc2O)N1 (centres undefined)
→ ? | -7.1%
> Cc1cccc(NC(=O)/C(C#N)=C/c2cn(CC(=O)NCc3ccco3)c3ccccc23)c1C
→ -17.7% | -27.7%
> Cc1ccc(NC(=O)COc2ccc(-c3nn(C)c(=O)c4ccccc34)cc2)c(C)c1
→ ? | ?
> N#CC1c2ccccc2-n2nncc2CN1C(=O)CCc1ccccc1 (centres undefined)
→ i | -9.1%
> COc1cc(NC(=O)C2CCN(c3nc4ccccc4nc3C(F)(F)F)CC2)cc(OC)c1
→ -0.4% | -6.4%
> CS(=O)(=O)N1CCCC(C(=O)NCc2ccco2)C1 (centres undefined)
→ -21.0% | -0.8%
> O=C1c2cccc3cccc(c23)C(=O)N1Cc1ccco1
→ -10.4% | -2.0%
> CC(C)NC(=O)N(O)C1N(Cc2ccc3c(c2)OCO3)C(=S)SC1(C)C (centres undefined)
→ . | -6.2%
> Cc1ccccc1S(=O)(=O)Cc1ccc(C(=O)N2CC(C)CC(C)C2)o1 (centres undefined)
→ 25.8% | -0.7%
> C(=C\c1ccccc1)/CSc1nnc(-c2ccccc2)n1Cc1ccco1
→ ? | ?
> CC1CCCCN1C(=O)CSc1nnc2c(n1)[nH]c1ccccc12 (centres undefined)
→ -15.1% | -9.3%
> COc1ccc(Cl)cc1NC(=O)C1CCN(c2ncnc3c2nc2n3CCCCC2)CC1
→ i | -10.2%
> N#CC(c1nc2ccccc2nc1N1CCOCC1)S(=O)(=O)c1ccccc1 (centres undefined)
→ i | -13.1%
> CN(C)S(=O)(=O)c1ccc(NC(=O)c2cc(F)c(F)cc2Cl)cc1
→ -8.8% | -18.0%
> O=C(CCC(=O)N1CCOc2ccccc21)NC1CCCCCC1
→ -9.0% | -0.7%
> Cc1ccc(Cn2nnc3c(=O)[nH]c(C4CCCN(C(=O)c5ccco5)C4)nc32)cc1 (centres undefined)
→ i | -2.0%
> CC[C@]1(C(=O)OC)[C@H]2C(=O)N(Cc3ccccc3)C(=O)[C@H]2[C@H]2CN=C(SCC(=O)c3ccccc3)N21
→ -20.3% | ?
> CC(=O)Nc1cccc(-c2ccnc3c2CC(C(=O)NCC2CC2)O3)c1 (centres undefined)
→ 13.2% | -12.4%
> O=C1CCCCC1C(=O)c1cn(-c2ccc(Cl)c(Cl)c2)nn1 (centres undefined)
→ -1.7% | 0.6%
> CC(=O)Nc1ccc(Cl)c(C(N)=O)c1
→ -6.4% | -3.3%
> CC(C)CNC(=O)c1cccc(NC(=O)c2ccc(NC(=O)c3ccco3)cc2)c1
→ -20.7% | -17.7%
> O=C(c1ccncc1)N1CCN(c2cc(-c3ccccc3)nc3cc(-c4cccc(Cl)c4)nn23)CC1
→ ? | ?
> Cc1cc(C(=O)COC(=O)c2nccnc2N)c(C)n1C
→ -2.8% | -12.8%
> Cc1ccc(C)c(S(=O)(=O)N2CCCOC2CNC(=O)C(=O)NCCCN2CCOCC2)c1 (centres undefined)
→ -13.7% | -12.1%
> COc1cccc(-n2nnnc2SCC(=O)c2ccc(NC(C)=O)cc2)c1
→ i | -9.1%
> CCOC(=O)c1c(S(=O)(=O)N2CCC(C(=O)Nc3ccc(OCC)cc3)CC2)c(C)n(C)c1C
→ -10.4% | -11.1%
> O=C(CN1CCN(C(=O)C2CCCO2)CC1)Nc1cc(C(F)(F)F)ccc1Cl (centres undefined)
→ -2.9% | -13.7%
> O=C(CSc1n[nH]c(-c2ccccn2)n1)Nc1ccc(Cl)cc1
→ 7.94µM* | -26.2%
> O=C(O)c1cc2[nH]c3c(c2cc1Cl)CCCC3
→ -0.6% | -15.8%
> CN1C(=O)Cc2cc(S(=O)(=O)NCc3ccccc3Cl)ccc21
→ -11.8% | -1.7%
> Cc1noc(NS(=O)(=O)c2ccc(NC(=O)c3ccccc3NS(=O)(=O)c3ccc(F)cc3)cc2)c1C
→ -3.6% | 0.0%
> COc1ccc(CN(C(=O)c2nsc(Cl)c2Cl)C(C(=O)NC2CCCC2)c2ccc(C)cc2)cc1 (centres undefined)
→ i | -18.4%
> Cc1c(CC(=O)O)c(=O)oc2c(C)c(OCc3nn[nH]n3)ccc12
→ 1.0% | 0.3%
> Cc1noc(C)c1S(=O)(=O)N(CC(=O)N1CCc2ccccc21)c1ccc(C(C)C)cc1
→ i | -16.7%
> CC(=O)Nc1ccc(NC(=O)c2c(C)nn(Cc3ccccc3)c2Cl)cc1
→ ? | -2.3%
> COc1ccc(Br)cc1S(=O)(=O)N(CC(=O)N1CCOCC1)c1ccccc1
→ -21.5% | -16.5%
> CC1(C(=O)NCc2ccc(F)c(F)c2)Cc2c(-c3cccc(C(F)(F)F)c3)ccnc2O1 (centres undefined)
→ -13.2% | -28.2%
> C/C(=C\c1ccccc1)C(=O)NCCN1CCOCC1
→ -13.7% | 1.2%
> CCOC(=O)C(=O)Nc1nnc(Cc2ccc(OC)c(OC)c2)s1
→ -0.7% | -8.2%
> Cc1c(NC(=O)COC(=O)c2ccc(S(=O)(=O)N3CCOCC3)cc2)c(=O)n(-c2ccccc2)n1C
→ i | 12.6%
> O=C(CC1CCC1)Nc1cccc2c([N+](=O)[O-])cccc12
→ ? | 4.4%
> O=C(c1ccc(CS(=O)c2ccccc2Cl)o1)N1CCN(c2ccccc2F)CC1 (centres undefined)
→ -21.3% | -19.5%
> C=CCOc1ccc(/C=C2/C(=O)ON=C2C)cc1OCC
→ -13.4% | -9.3%
> COc1ccccc1OCC(=O)NCC1CCCN(C(=O)c2ccccc2C(C)=O)C1 (centres undefined)
→ -5.5% | -14.0%
> COc1ccccc1NS(=O)(=O)c1ccc2oc(SC3CCOC3=O)nc2c1 (centres undefined)
→ . | -9.2%
> COc1ccc(NC(=O)CC(C)C)c(OC)c1
→ . | 1.8%
> COc1cc(/C=C2\Oc3ccc(C#Cc4ccc(O)cc4)cc3C2=O)cc(OC)c1
→ ? | 8.91µM*

Remaining list, next part:
Value order – VACV mCherry inh | VACV Venus inh
> COc1ccc(/C=C/CN2CCN(CCc3ccccc3)C(CCO)C2)cc1 (centres undefined)
→ -4.8% | -13.4%
> O=S(=O)(Nc1nc2ccccc2nc1Nc1ccccc1Br)c1ccccc1
→ -4.2% | -2.7%
> COc1cc(-c2noc(-c3ccc(NCc4ccccc4)c([N+](=O)[O-])c3)n2)cc(OC)c1OC
→ 5.7% | 14.2%
> Cc1cc(/C(N)=N/OC(=O)c2ccc(Cl)cc2)no1
→ i | -11.8%
> COc1cc(C(=O)N(C)CC(=O)Nc2cccc(F)c2)ccc1OCc1ccccc1
→ i | -12.6%
> COCCn1nnnc1C(c1cc2cc(C)ccc2[nH]c1=O)N1CCN(C2CCCCC2)CC1 (centres undefined)
→ i | -12.7%
> N#Cc1cc(-c2ccccc2)nnc1Sc1ccc(F)cc1
→ . | -26.2%
> CC(C)c1ccc(NC(=O)Nc2cnccn2)cc1
→ -27.2% | -20.0%
> Cc1cccc(CSc2nnc(Cn3c(=O)sc4ccccc43)n2C)c1
→ -2.7% | -0.9%
> CCOc1ccc2nc(NC(=O)CCC(=O)c3cccs3)sc2c1
→ . | -30.0%
> Cc1cccc(NS(=O)(=O)c2ccc(S(=O)(=O)N3CCCC3)cc2)c1
→ -4.2% | ?
> O=C(c1ccoc1)N1CCOc2ccc(CN3CCC(Oc4cccnc4)CC3)cc2C1
→ -7.4% | 11.5%
> O=C(COC(=O)Cc1ccccc1)Nc1cc(S(=O)(=O)N2CCOCC2)ccc1N1CCCC1
→ -9.2% | -3.1%
> COc1cc(CCC(=O)N2CCN(c3cccc(C)c3C)CC2)cc(OC)c1OC
→ -19.7% | -12.5%
> CCOc1ccccc1-c1cc(NC)ncn1
→ i | 1.0%
> Cc1cccc(NS(=O)(=O)c2ccc3[nH]c(=O)[nH]c3c2)c1C
→ -10.5% | -16.7%&-5.1%
> C=C(C)c1cccc(C(C)(C)NC(=O)Nc2cc(C)ccn2)c1
→ -10.7% | -25.0%
> COc1cccc(NC(=O)Cn2cc(C(=O)C3CCCCC3)c3ccccc32)c1
→ -0.7% | -14.3%
> COc1ccc(/C=C/C(=O)N(C)CC(=O)Nc2cccc(F)c2)cc1S(=O)(=O)N1CCCCC1
→ -16.1% | ?
> O=C(O)CCCC(=O)N1CCc2cc(S(=O)(=O)N3CCc4ccccc43)ccc21
→ 18.3% | -10.6%
> O=C(COc1ccc(Br)cc1F)NC1CC1
→ -13.6% | 0.1%
> Cc1ccc(C)c(OCCC(=O)OCC(=O)Nc2ccc(N3CCOCC3)cc2)c1
→ -9.4% | -7.1%
> COc1ccccc1CNC(=O)c1ccc2c(c1)nnn2C1CCCC1
→ -1.0% | 3.1%
> COC(=O)c1c(NC(=O)c2ccc(S(=O)(=O)N3CCCCC3)cc2)sc2c1CCN(C)C2
→ -15.8% | -11.4%
> Cc1cc(N2CCCc3ccccc32)n2ncnc2n1
→ -0.8% | -2.7%
> O=c1cc(/C=C/c2ccc([N+](=O)[O-])cc2)c2ccccc2[nH]1
→ i | -13.3%
> NC1=NC(=O)/C(=C/c2ccsc2)S1
→ -12.3% | -8.3%
> O=C(CC(=O)c1ccccc1O)c1cccc(F)c1
→ -0.6% | 0.0%
> Oc1ccc(Cl)cc1CNCc1ccc(F)c(F)c1
→ -28.5% | ?
> CC1(C)CC(=O)C=C(Nc2ccc(Cl)c(Br)c2)C1
→ -2.6% | -11.4%
> O=C(COC(=O)CSc1ccccc1)Nc1ccc(F)cc1F
→ -2.6% | -3.4%
> O=C1CCc2ccccc2N1Cc1ccccc1
→ -14.6% | -5.6%
> COC(=O)c1ccc(C2C(C(=O)Nc3ccccc3C)=C(C)Nc3ncnn32)cc1 (centres undefined)
→ . | -8.4%
> CC1CCN(C(=O)c2ncn3c2c(=O)[nH]c2ccc(Br)cc23)CC1
→ 0.1% | 1.5%
> Cc1ccnc2cc(Cl)cc(Cl)c12
→ -10.5% | -6.9%
> Cc1cc(C(=O)Nc2ccc3ccccc3c2)oc1C
→ ? | -6.2%
> CCCCCCCCCCCCCCCC[n+]1ccccc1
→ 12.6µM*! | 14.1µM*!
> Cn1c(/C(C#N)=C/C2CC=CCC2)nc2ccccc21 (centres undefined)
→ -2.1% | -15.3%
> COc1ccccc1C(=O)NC(CCSC)C(=O)N1CCN(C/C=C/c2ccccc2)CC1 (centres undefined)
→ ? | ?
> Cn1cnnc1Sc1ccc(S(C)(=O)=O)cc1[N+](=O)[O-]
→ ? | -29.2%

A run of entries taken from the entries so far:
Value order – VACV mCherry inh | VACV Venus inh
> O=C(Nc1ccc(Cl)c(Cl)c1)c1cccc(S(=O)(=O)NCc2cccnc2)c1
→ 28.2µM* | ?
> Cc1[nH]c2c(C)cccc2c1CC(=O)O
→ -2.2% | -8.1%
> COc1ccc(CN(CC(=O)NCC2CCCO2)C(=O)CNS(=O)(=O)c2ccc(C)cc2)cc1 (centres undefined)
→ . | -10.6%
> CCOc1ccccc1-c1nc(Cn2c(=O)cc(C)c3c(C)nn(-c4ccccc4)c32)c(C)o1
→ -0.3% | -8.4%
> CC(C)OS(C)(=O)=O
→ -12.7% | -15.0%

Remaining list, next part:
Value order – VACV mCherry inh | VACV Venus inh
> Cc1cccc(C(=O)OCC(=O)N2CC(C)OC(C)C2)c1C (centres undefined)
→ 1.7% | -17.8%
> Cc1ccccc1C(=O)Nc1cccc(OCc2cc(=O)n3cccc(C)c3n2)c1
→ -6.7% | -9.1%
> COc1ccc(NC(=O)CCc2c(C)nc3c(c2C)c(=O)n(C)c(=O)n3C)c(OC)c1
→ -5.4% | -10.5%
> COc1cc(C(=O)NNC(=O)NC2CCCCC2)cc(OC)c1OC
→ -15.8% | -8.5%
> CCc1c(C)sc(NC(=O)C2c3ccccc3Oc3ccccc32)c1C(=O)OC(C)C
→ -6.7% | 3.1%
> Cc1cccn2c(=O)c3cc(C#N)c(=O)n(-c4nnc(SCc5ccc(Cl)cc5)s4)c3nc12
→ -12.3% | 0.3%
> Cc1sc2nc(CN3CCCCC3)nc(Cl)c2c1C
→ -8.6% | -13.9%
> CN(Cc1ccccc1)C(=O)CCC1CCN(S(C)(=O)=O)CC1
→ -14.6% | 1.9%
> Cc1cccc(-c2nc(SCCCOc3ccccc3Cl)n3[nH]c(=O)cc3n2)c1
→ -8.2% | 4.2%
> CC1CCc2c(sc(N)c2C(=O)OC(C)C)C1 (centres undefined)
→ . | ?
> C=C1C(=O)C23CCC4C(C)(C(=O)OC)CCCC4(C)C2CCC1(O)C3 (centres undefined)
→ 7.94µM* | 11.2µM*
